Calb biofilm kill: mixture kills Candida albicans biofilm cells; C. albicans biofilm persisters + clotrimazole, fluorescence viability; primary screen in compound mixtures of four per well; inhibition, % at 7.6 µM; actives 0.02% (n = 120,000); AID 1242;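 active = inhibition above 30.3% in the primary screen of four-compound pools, then above 30% when the compound was retested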;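 also: compounds exposed to preformed 24 h biofilms for 48 h; the number belongs to the whole pool; some results filed as inactive read as strong as hits; inactives centre near 12; 0% = biofilm with clotrimazole alone and 100% = kill control; retested singly at about 60 µM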
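System: C. albicans CAF4-2 wild-type biofilms; Medium: RPMI/MOPS medium, pH 7.0; Reagent: Clotrimazole, 50 µg/mL; Times: biofilm formation 24 h, compound exposure 48 h, 37 °C; Detection: 2-h Alamar Blue fluorescence, 535/590 nm excitation/emission; Evaluation: percent inhibition of biofilm viability.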
An asterisk follows results filed as active. A portion of the library; the hit share may differ from the screen's.

SMILES | Calb biofilm kill
Cc1cc(C(=O)COC(=O)c2ccc(O)cc2)c(C)n1-c1ccccc1F | 11
COc1ccc(Cl)cc1C(=O)Nc1cc(=O)n(C)c(=O)n1C | 0
COc1ccc(CNc2nc(NCc3ccc(OC)cc3)n(C(=O)c3ccncc3)n2)cc1 | 15
O=C(O)c1cn(-c2ccc(N3CCCC3)c(F)c2)c2c(F)c(F)c(F)cc2c1=O | 21
Cc1ccc(CNC(=O)COC(=O)CSc2ccc(Br)cc2C)cc1 | 11
Cc1ccc(NC(=O)C2SC(=Nc3ccccc3)C(C(=O)Nc3ccc(Cl)cc3)=C2N)cc1 (stereo unspecified) | 4
Cc1cc(C(=O)Nn2c(C)nc3ccccc3c2=O)ccc1[N+](=O)[O-] | 9
CCOC(=O)CC(c1ccc(N)cc1)n1c(C)ccc1C (stereo unspecified) | 12
CCN(CC)C(=O)c1ccc2nc3ccccc3nc2c1 | 20
Cc1c(C(=O)Nc2ccccc2)csc1-c1ccccc1 | 10
O=C(Nc1ncc2c(n1)-c1ccccc1OC2)c1cccc([N+](=O)[O-])c1 | 0
OC1(c2ccccc2)CCN(Cc2ccccc2)C2CCCCC21 (stereo unspecified) | 0
COc1ccc(-n2c(=O)c3c(C)c(C)sc3n(Cc3ccc(F)cc3)c2=O)c(OC)c1 | 15
CN(CC(O)Cn1c2ccccc2c2ccccc21)S(C)(=O)=O (stereo unspecified) | 12
COc1cc(OC)cc(C(=O)N[C@H](C(=O)OCC(=O)Nc2cccc(F)c2)C(C)C)c1 | 6
O=[N+]([O-])c1cc(C(F)(F)F)ccc1NCCOc1ccccc1 | 10
O=C(O)c1cc(-c2ccc3c(c2)OCCO3)n[nH]1 | 22
CCN(CC)C(=S)SSC(=S)N(CC)CC | -5
COc1ccccc1CNC(=O)CC1Sc2ccccc2NC1=O (stereo unspecified) | 18
CCOC(=O)C1=C(C)N(C)C(=S)N(C)C1c1ccc(OC)cc1 (stereo unspecified) | 24
Cc1ccc(/C=N/NC(=O)NN(C)c2ncc(C(F)(F)F)cc2Cl)cc1 | -14
CCC(C)Sc1nc2c(c(=O)[nH]c(=O)n2C)n1CC(O)COc1ccccc1C (stereo unspecified) | 3
O=C(Nc1nccs1)c1cc(Cl)ccc1[N+](=O)[O-] | 6
CC(=O)Nc1ccc(S(=O)(=O)N(CCCN2CCOCC2)Cc2cccs2)cc1 | -8
Cc1ccc(/C(N)=N/OC(=O)COc2ccc(Cl)c(C)c2)cc1 | 9
Further compounds:
SMILES | Calb biofilm kill
CCN1C(=O)C(CC(=O)Nc2ccc(F)cc2)N(Cc2cccs2)C1=S (stereo unspecified) | 15
CN(C)CCCN(C(=O)CCc1ccccc1)c1nc2c(F)cccc2s1 | 5
CC(C)CN1CCN(Cc2cc(F)ccc2-n2cccn2)CC1CCO (stereo unspecified) | 4
C=CCc1cccc2cc(C(=O)NCCOC)c(=O)oc12 | -29
O=C(CSc1nc2ccccc2s1)Nc1ccc(N2CCOCC2)c(Cl)c1 | 12
O=S(=O)(c1ccc(Br)s1)N1CCNCC1 | 12
O=C(OCC(=O)N1CCc2ccccc2C1)c1cc(=O)[nH]c2ccccc12 | 19
COc1ccc2oc(=O)c(C(=O)NCc3cccnc3)cc2c1 | 5
CC(C)Cn1c(N)c(C(=O)COC(=O)c2ccc(O)cc2)c(=O)n(C)c1=O | 5
COC(=O)C1=C(C(=O)OC)[C@@H]2N(C)c3ccccc3[C@@]23C[C@@H](C(=O)OC)N(C(=O)C2CCC2)C3=N1 | 17
Cc1cc(C)nc(N/N=C/c2cccc3ccccc23)n1 | 20
COc1ccccc1CNC(=O)C(C)c1ccc([N+](=O)[O-])cc1 (stereo unspecified) | -3
Cc1cnc(CN2CCc3c([nH]c4ccccc34)C2CC(C)C)[nH]1 (stereo unspecified) | 8
C/C(=N\NC(=O)Cn1nc(C)cc1C)c1ccc([N+](=O)[O-])cc1 | 15
COc1cc(C(=O)NC(=S)Nc2ccc(N3CCCC3)cc2)cc(OC)c1OC | 19
Cc1ccc(C(=O)N[C@H](C(=O)OCc2cc(=O)n3c(n2)sc2ccccc23)C(C)C)cc1 | 11
CC(C)CC(=O)/C(=C\c1ccc(Cl)cc1Cl)n1cncn1 | 12
CCOC(=O)Cn1nc(C)c(NC(=O)c2ccc([N+](=O)[O-])c(C)c2)c1C | 8
CC(C)n1c(=O)[nH]c2cc(C(=O)Nc3ccccc3)ccc21 | 7
Cc1ccccc1Nc1nc(N)nc(COC(=O)c2ccc(S(=O)(=O)N(C)C)cc2)n1 | 17
O=C(O)c1ccccc1Sc1ncnc2sc3c(c12)CCC3 | 6
Cc1cc(NC(=O)C2C3C(=O)N(c4cccnc4)C(C(=O)NC(C)(C)C)C34C=CC2(C)O4)no1 (stereo unspecified) | 24
O=C(CSc1nc2[nH]ncc2c(=O)n1-c1ccccc1)NCc1cccs1 | 10
O=C(Nc1ccc(F)cc1)NC1CCN(Cc2c(F)cccc2Cl)CC1 | 23
Cc1nnc(SCc2cc(=O)[nH]c(/N=C(\N)Nc3ccccc3)n2)s1 | 5
New compounds follow:
SMILES | Calb biofilm kill
c1cn2c(Nc3ccc4c(c3)OCCO4)c(-c3ccc(N4CCOCC4)cc3)nc2cn1 | 20
Cc1ccc(-n2nnnc2SCC(=O)Nc2ccccc2-c2ccccc2)cc1C | 12
CNC(=S)N/N=C/c1ccc(-c2cccc(C(=O)O)c2)o1 | 14
O=C(O)C1CCCN1c1nc(C(F)(F)F)nc2ccccc12 (stereo unspecified) | 13
CCOC(=O)c1c(C)[nH]c(C(=O)COC(=O)c2ccc(O)cc2)c1C | 16
CN(Cc1nc2ccc(Cl)cc2[nH]1)Cc1nc(-c2cnccn2)no1 | 3
Cc1ccccc1NC(=O)N(CCc1nc2ccccc2[nH]1)Cc1ccccc1 | 19
CCN(CCn1cccn1)C(=O)CCc1nnc(-c2ccc3c(c2)OCO3)o1 | 11
COC(=O)C1NN=C(C(=O)c2ccccc2)C1c1ccccc1 (stereo unspecified) | 23
COc1cccc(C(=O)CN2CCN(S(=O)(=O)c3cccc([N+](=O)[O-])c3)CC2)c1 | 10
CCC(CO)NCc1ccc(OCC(=O)Nc2cccc(C(F)(F)F)c2)c(OC)c1 (stereo unspecified) | 14
CCC1(c2ccccc2)NC(=O)N(CC(=O)N2CCN(S(=O)(=O)c3ccccc3)CC2)C1=O (stereo unspecified) | 8
CCOC(=O)N1CCC(NC(=S)Nc2ccc3nc(N4CCN(C)CC4)cc(C)c3c2)CC1 | 24
NC(=O)CCC(NS(=O)(=O)c1ccc(Cl)cc1)C(=O)NCc1ccc(Cl)cc1 (stereo unspecified) | 19
COc1ccc(-c2nnn(CC(=O)N(CCCO)C(C(=O)NC3CCCC3)c3ccc(F)cc3)n2)cc1 (stereo unspecified) | 22
Cc1ccc(N=C2NC(=O)C(CC(=O)NCc3ccccc3)S2)cc1C (stereo unspecified) | 6
O=C(CCl)NCCCN(C(=O)C(Cl)Cl)c1ccc([N+](=O)[O-])cc1 | 14
CCS(=O)(=O)NC(C)C(c1cccs1)N1CCN(c2ccc(OC)cc2)CC1 (stereo unspecified) | -5
O=C(CCC1CCCN(C2C3CC4CC(C3)CC2C4)C1)NCc1ccc(F)c(F)c1 (stereo unspecified) | 3
CCOC(=O)C1(Cc2ccccc2)CCN(Cc2ccc3cc(NC(C)=O)ccc3n2)CC1 | 14
Cc1ccc(OCC(=O)c2cc(C)n(CC(F)(F)F)c2C)c([N+](=O)[O-])n1 | -7
CC1CCCN(c2cc(N(C)CCO)c([N+](=O)[O-])c3nonc23)C1 (stereo unspecified) | 24
COc1ccccc1-c1nc(C#N)c(NCCCn2ccnc2)o1 | 9
CCCn1c(SCC(=O)C(C)(C)C)nc2ccccc21 | -6
COc1coc(C(O)CN)cc1=O (stereo unspecified) | 16

Reprinted at random: 2 entries already listed.
SMILES | Calb biofilm kill
O=C(CCl)NCCCN(C(=O)C(Cl)Cl)c1ccc([N+](=O)[O-])cc1 | 14
CCCn1c(SCC(=O)C(C)(C)C)nc2ccccc21 | -6

The results go on:
SMILES | Calb biofilm kill
Cc1ccccc1C(=O)Nc1ccc(C(=O)N/N=C/c2ccc(O)c(Br)c2)cc1 | 14
O=C(Nc1cccnc1)c1ccc(Cl)c([N+](=O)[O-])c1 | 19
C=C(C)Cn1c(-c2cccc([N+](=O)[O-])c2)n[nH]c1=S | 12
COc1ccc(/C(C)=N/NC(=O)c2sccc2-n2cccc2)cc1 | 6
COc1ccc(C(C)(C)C)cc1NC(=O)c1ccc2c(c1)SC1=NS(=O)(=O)CCN12 | 15
O=C(COc1ccccc1-c1ccccc1)NNC(=O)NC1CCCCC1 | 19
CCOC(=O)c1ccc(NC(=O)COc2ccccc2CNCCc2ccccc2)cc1 | 6
CNc1nc(N)c([N+](=O)[O-])c(NCCO)n1 | 11
CNC(=O)c1ccc(Nc2nnc(C)c3ccccc23)cc1 | 15
O=C(Nc1ccccc1-c1ccccc1)c1cc(C(F)(F)F)cc(C(F)(F)F)c1 | 5
COc1ccc(OCCC(=O)c2ccc(OC)cc2)cc1 | 15
COc1ccc(CNc2cc(NCCCO)c([N+](=O)[O-])c3nonc23)cc1 | 18
COc1ccc(NC(=S)NCc2ccc(S(N)(=O)=O)cc2)c(OC)c1 | 20
CSc1cccc(NC(=O)Nc2nc3c(C)cccc3s2)c1 | -18
Cc1nc(-c2cc(C#N)c(=O)[nH]c2C)cs1 | 30
COc1ccc(NS(=O)(=O)c2cc(NC(=O)c3cnccn3)ccc2N2CCCC2)cc1 | -8
CCOC(=O)N1CCN(S(=O)(=O)c2ccc(C(=O)NNc3nc4c(C)cc(C)cc4s3)cc2)CC1 | 4
CCOC(=O)N1CCN(C(=O)CSCc2ccccc2Cl)CC1 | 18
CCn1cnc2cc(NCc3cccs3)ccc21 | 5
CCn1c(-c2ccc(C)cc2)nn(CC(=O)NCCc2ccccc2)c1=S | 5
COc1ccccc1N1CCN(C(=O)c2cc(N3C(=O)C4C5CCC(C5)C4C3=O)ccc2Cl)CC1 (stereo unspecified) | 14
COc1cccc(C2CC(c3cccs3)=NN2C(=O)CSc2nc3c(cnn3-c3ccc(F)cc3)c(=O)[nH]2)c1OC (stereo unspecified) | -4
COc1ccc(/C=C2\SC(=S)N(CC(=O)Nc3nnc(C)s3)C2=O)cc1 | 11
COC(=O)c1c(NC(=S)Nc2ccc(C(=O)N3CCOCC3)cc2)sc2c1CCC2 | -4
COc1ccccc1NC(=O)CN1C(=O)CSC(C)C1=O (stereo unspecified) | 9
(listing goes on)
SMILES | Calb biofilm kill
C/C(=N\NS(=O)(=O)c1ccccc1)c1ccc2c(c1)OCO2 | 7
Cc1ccc(/C=N/NC(=O)NC23CC4CC(CC(C4)C2)C3)o1 | 17
CC(=O)Nc1nc(CCN2C(=O)c3ccccc3C2=O)cs1 | 24
COc1ccc(-c2cc3cc(OC)c(OC)cc3c(C)n2)cc1 | 13
COc1ccc(/C=C2\N=C(SC)N(c3ccccc3OC)C2=O)cc1 | -7
Cc1nc2ccccc2nc1N1CCCC1 | 31
COC(=O)c1ccc(S(=O)(=O)NNC(=O)COc2ccc(C)cc2)cc1 | 14
CCn1ccnc1CN1CCCC(CO)(Cc2cccc(OC)c2)C1 (stereo unspecified) | 13
CSCc1cc(N2CCCC2)nc(-c2ccccc2)n1 | 9
O=C(Nn1cnc2ccccc2c1=O)c1ccccc1 | 15
COc1cc2ccccc2cc1C(=O)NC(=S)Nc1cc(C(=O)O)ccc1C | 14
COC(=O)CCCC1=CC2=CC(=O)C(C)(OC(=O)c3cccs3)C(=O)C2=CN1C1CCCCC1 (stereo unspecified) | 31
CC(C)(C)NC(=O)NC(=O)CSc1nncs1 | 10
COc1ccc(CCn2c(C3CCCCC3)nc3c(c(=O)c4ccccc4n3C)c2=O)cc1 | 24
Cc1cc(O)ccc1N1C(=O)c2cccc3cc([N+](=O)[O-])cc(c23)C1=O | 10
CC(=O)Nc1cccc(-c2cn3ccccc3n2)c1 | 18
O=S(=O)(c1ccc(Cl)cc1)N1CCN(c2ncccn2)CC1 | 10
O=C(CSc1ccc(-c2ccccn2)nn1)N1CCCc2ccccc21 | -4
Cc1ccc(S(=O)(=O)NNC(=O)c2cccnc2)cc1 | -4
Cc1c(NC(=O)CN2C(=O)C(=O)c3ccccc32)c(=O)n(-c2ccccc2)n1C | 19

Sorted by number of heavy atoms (falling): 15 of the compounds above.
SMILES | Calb biofilm kill
COC(=O)C1=C(C(=O)OC)[C@@H]2N(C)c3ccccc3[C@@]23C[C@@H](C(=O)OC)N(C(=O)C2CCC2)C3=N1 | 17
CCOC(=O)C1(Cc2ccccc2)CCN(Cc2ccc3cc(NC(C)=O)ccc3n2)CC1 | 14
Cc1ccc(C(=O)N[C@H](C(=O)OCc2cc(=O)n3c(n2)sc2ccccc23)C(C)C)cc1 | 11
Cc1ccccc1Nc1nc(N)nc(COC(=O)c2ccc(S(=O)(=O)N(C)C)cc2)n1 | 17
COc1ccc(C(C)(C)C)cc1NC(=O)c1ccc2c(c1)SC1=NS(=O)(=O)CCN12 | 15
CC(=O)Nc1ccc(S(=O)(=O)N(CCCN2CCOCC2)Cc2cccs2)cc1 | -8
CCN(CCn1cccn1)C(=O)CCc1nnc(-c2ccc3c(c2)OCO3)o1 | 11
CC(C)Cn1c(N)c(C(=O)COC(=O)c2ccc(O)cc2)c(=O)n(C)c1=O | 5
CCN1C(=O)C(CC(=O)Nc2ccc(F)cc2)N(Cc2cccs2)C1=S (stereo unspecified) | 15
CCn1ccnc1CN1CCCC(CO)(Cc2cccc(OC)c2)C1 (stereo unspecified) | 13
OC1(c2ccccc2)CCN(Cc2ccccc2)C2CCCCC21 (stereo unspecified) | 0
CCOC(=O)N1CCN(C(=O)CSCc2ccccc2Cl)CC1 | 18
COc1ccc(Cl)cc1C(=O)Nc1cc(=O)n(C)c(=O)n1C | 0
C=CCc1cccc2cc(C(=O)NCCOC)c(=O)oc12 | -29
O=C(Nn1cnc2ccccc2c1=O)c1ccccc1 | 15

Screening data deposited in PubChem by PCMD.
